TAR Tat displ = TAR RNA-Tat peptide displacers, HIV-1, primary screen, biochemical, FRET, FAM/TAMRA-labeled Tat; HIV-1 TAR RNA, Tat peptide displacement FRET; hits give high values; z-score (concentration not given with the values); 100,000 compounds, 0.6% hits;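 further: score is relative to mean and SD of negative controls; some compounds called inactive have numbers as strong as hits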
CDC25B CDK2 inh = primary biochemical HTRF screen for blockers of M-phase inducer phosphatase 2 binding to CDK2/cyclin A; 94,000 compounds, 0.72% hits; HTRF CDC25B-CDK2/CyclinA binding, anti-His/anti-Flag; hits give high values; z-score (concentration not given with the values); P30305+P24941; AID 1259370, 2018;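 further: score is relative to mean and SD of negative controls; strong numbers were not always called active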
* hit, by the source's call; . = not tested or not shown.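 How the source made its calls: active means z-score from 3 up in half or more of its runs; inactive means the rest.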 An unsorted share of the library (roughly 0.97% active in at least one column).

SMILES	TAR Tat displ	CDC25B CDK2 inh
CN(C)S(=O)(=O)Oc1ccc(-c2noc(-c3ccc(Oc4cc(Cl)cc(Cl)c4)o3)n2)cc1	.	0.3
Cc1[nH]c2ccccc2c1C(Nc1ccccn1)c1ccccc1 (stereo not drawn)	.	-1.7
Nc1cc(S(=O)(=O)O)c(N)c2c1C(=O)c1ccccc1C2=O	.	-2.4
CCOC(=O)c1cc(S(=O)(=O)NCc2ccccn2)[nH]n1	1.9	.
COc1ccc(NC(=O)CC2C(=O)N(C)C(=S)N2CCNC(C)=O)cc1 (stereo not drawn)	.	0.2
CCOC(=O)c1noc2ncnc(N(Cc3cccs3)C3CCCC3)c12	-1.1	.
COc1cc(C2NC(=S)NC3=C2CCc2ccccc23)cc(OC)c1OC (stereo not drawn)	.	-1.5
Cc1ccc(N2C(=O)c3[nH]nc(-c4ccc(Br)cc4)c3C2c2ccco2)cc1 (stereo not drawn)	2.1	.
CC(C)(C)NC(=O)c1cnn2c1NC(c1ccc(F)cc1)CC2C(F)(F)F (stereo not drawn)	2	-2.5
CC(=O)N1CCC(N(C(=O)Nc2ccc(Br)cc2F)C(C)C)CC1	-0.11	-1.4
O=C(COc1ccc(F)cc1)OCc1cc(=O)n2c3c(sc2n1)CCCC3	1.1	.
Cn1c(C(=O)NC2CCCCCC2)cc2sc(Cl)cc21	.	-0.94
O=C(CCC(=O)NC1CCCCC1)Nc1nc(-c2cc3ccccc3oc2=O)cs1	.	-0.24
COc1cccc(NC(=O)NCc2c(-n3cccc3)sc3c2CCCC3)c1	1.8	-2.2
CC(=O)N1CCc2cc(Br)cc(S(=O)(=O)CCC(=O)NCCC3=CCCCC3)c21	.	-1.5
Cc1ccc(S(=O)(=O)c2cnc3ccc(F)cc3c2N2CCCCC2)cc1	0.48	0.99
COc1ccc2[nH]cc(/C=C/c3nc4ccccc4c(=O)n3-c3ccccc3OC)c2c1	0.94	-1.4
Cc1csc(NC(=O)CSc2ccc3nnc(-c4cccnc4)n3n2)n1	1.9	.
COc1ccc(Cl)cc1NS(=O)(=O)c1ccc(-c2ccc(=O)[nH]n2)o1	0.82	.
CN1C(=O)CN(S(C)(=O)=O)CC1(C)C(=O)NCC(=O)NCCc1cccs1 (stereo not drawn)	0.06	.

Fetched by structure from the list above (three):
SMILES	TAR Tat displ	CDC25B CDK2 inh
Cc1[nH]c2ccccc2c1C(Nc1ccccn1)c1ccccc1 (stereo not drawn)	.	-1.7
CC(=O)N1CCC(N(C(=O)Nc2ccc(Br)cc2F)C(C)C)CC1	-0.11	-1.4
COc1ccc2[nH]cc(/C=C/c3nc4ccccc4c(=O)n3-c3ccccc3OC)c2c1	0.94	-1.4

Later entries
SMILES	TAR Tat displ	CDC25B CDK2 inh
CCc1nn(CC(=O)NC(C)C)c(=O)c2cc3sccc3n12	.	-4
CCc1cccc(-n2nnc(S(=O)(=O)c3ccc(C)cc3)c2C)c1	3.6	-0.89
CN1CCN(c2c3c(c(C#N)c4nc5ccccc5n24)CCC3)CC1	.	-1.3
Cc1cc(N(C)C)nc(N2CCN(C(=O)Nc3ccc(Cl)cc3)CC2)n1	-0.07	.
Cc1c(C(=O)O/N=C(\N)c2ccc([N+](=O)[O-])o2)n(C)oc1=O	.	-1.7
COC(=O)c1[nH]c2sc3c(c2c1-n1cccc1)CCCC3	1.6	13*
Cc1ccc(N2CCN(c3c(-c4ccc(Cl)cc4)c(=O)c3=O)CC2)c(C)c1	0.54	.
CCN1CCN(c2cc(C)nc3nc(Cc4ccc(Cl)cc4)nn23)CC1	0.13	-1.5
CSc1cccc(Nc2nc(C(C)(C)C)cs2)c1	.	-0.85
Cc1[nH]nc2c1C(c1cccnc1)N(C)C2=O (stereo not drawn)	-1.2	-0.66
O=C(O)c1cc(-c2cc(C(=O)O)c3ccccc3n2)nc2ccccc12	1.1	1.6
Cc1cccn2c(=O)c3cc(C(=O)N(C)C)n(C)c3nc12	0.32	.
O=S1(=O)N=C(Cc2ccccc2)Nc2ccc(S(=O)(=O)N3CCOCC3)cc21	0.46	.
Cc1cccn2cc(CSc3cccc4cccnc34)nc12	-0.24	-4.5
O=C(Cc1csc(-c2cccs2)n1)NNC(=O)c1cccs1	.	-3.5
COc1cccc(C(=O)NC(=S)Nc2ccc(-c3nc4cc(C)ccc4o3)c(O)c2)c1	.	-4
O=C(NCc1cccnc1)c1cnc2ccccc2n1	.	-3.2
O=C(C1=C(Nc2cccc(F)c2)c2ccccc2S1(=O)=O)N1CCOCC1	0.38	.
O=C(Cn1cnc(S(=O)(=O)N2CCc3ccccc32)c1)Nc1cccc(Br)c1	0.92	.
CCOC(=O)c1cnc(SCC(=O)N(CC)CC)nc1N	-0.87	.
CCC(CC)C(=O)Nc1c(C)n(C)n(-c2ccccc2)c1=O	0.49	-1.1
CC(=O)N1CCC2(CC1)OC(=O)C(C)=C2C(=O)NC1CCCC1	0.94	.
CCc1ccc(Oc2coc3cc(OC(C)C(=O)OCC(C)C)ccc3c2=O)cc1 (stereo not drawn)	.	1
O=C(NC1CCCCC1)c1ccc2c(c1)NC(=O)C(CS(=O)(=O)Cc1ccc(F)cc1)N2 (stereo not drawn)	1.4	.
C=CCNC(=O)C1CCN(c2nc3cccnc3s2)CC1	0.24	.
O=C(Cn1cnc2onc(-c3ccc(F)cc3)c2c1=O)N1CCc2ccccc21	0.31	.
CCS(=O)(=O)c1nc2ccccc2n1CCOc1ccc(Cl)cc1	1.2	-0.59
COCc1cc(C)nc2sc(C(=O)N3CCOCC3)c(N)c12	-1.2	-0.92
c1ccc(-c2csc(-c3ccc(-c4ccccn4)s3)n2)cc1	.	0.41
COc1ccc(NC(=O)Nc2cc3oc4ccccc4c3cc2OC)cc1	.	-1.1
CCc1nn(CCCC(=O)NCCCN2CCCC2)c(=O)c2cc3oc(C)cc3n12	-0.65	-1.5
CCCc1c(C(=O)Nc2cc(C)on2)cnn1-c1ccccc1	.	-1.2
Cc1nc2c(c(C)c1CCC(=O)N1CCCC1)c(=O)n(C)c(=O)n2C	0.64	-0.65
CCOC(=O)c1c(Cl)cc(C)cc1N1CCCC1	.	-1.3
CCOC(=O)C1CCN(c2cc(NCCOC)c3c4c(onc24)-c2ccccc2C3=O)CC1	1.3	-1.3
Cc1cc(C)c(-c2c(NC3CCCC3)c(=O)c2=O)cc1C	-0.86	.
O=C(Nc1nc2ccccc2s1)c1cc(Br)ccc1Cl	1.8	-9.8
CCOc1ccc2nc(NC(=O)c3[nH]c(C)c(C(C)=O)c3C)sc2c1	.	-0.13
Cc1ccc(Nc2nc(N3CCN(C)CC3)nc(N)c2[N+](=O)[O-])cc1	0.52	.
C[C@]12C=CC(=O)C=C1CC[C@@H]1[C@@H]2[C@@H](O)C[C@@]2(C)[C@H]1CC[C@]2(O)C(=O)COC(=O)CCC(=O)O	-0.69	.

Taken from above.
In TAR Tat displ, C=CCNC(=O)C1CCN(c2nc3cccnc3s2)CC1 is listed with 0.24
In CDC25B CDK2 inh, CCOC(=O)C1CCN(c2cc(NCCOC)c3c4c(onc24)-c2ccccc2C3=O)CC1 is listed with -1.3

More records.
SMILES	TAR Tat displ	CDC25B CDK2 inh
O=C(NC1CCCCC1)C1COc2ccccc2O1 (stereo not drawn)	0.53	-1.4
O=c1c(-c2ccccc2)c(O)nc2ccccn12	1.7	1.1
C=CCn1c(Cc2c(C)[nH]c3ccccc23)nnc1SCC(=O)Nc1ccc2c(c1)OCO2	0.6	-0.82
O=C(Nc1ccc(NC(=O)c2ccccc2O)cc1)c1ccc(Cl)cc1	.	-1.8
CCOc1ccc(-c2noc(-c3nnn(-c4cc(C)cc(C)c4)c3N)n2)cc1	-0.47	.
CCCNC(=O)c1c(C)cc(=O)oc1C	0.79	.
O=C(CCS(=O)(=O)c1cc(Br)cc2c1N(C(=O)C1CC1)CC2)NC1CCCCCC1	.	-1.7
O=C(NNC(=O)c1ccccc1)NC(=O)c1ccccc1Cl	.	4.3
O=S(=O)(Nc1cccc(Br)c1)c1ccc2[nH]c3c(c2c1)CCCC3	-1.9	.
Cc1ccc(S(=O)(=O)n2nc(OC(=O)c3ccco3)cc2N)cc1	1.7	1.5
Cc1ccc2nc(CNS(=O)(=O)c3ccc(-c4n[nH]c(C)c4C)s3)[nH]c2c1	0.41	.
COc1ccc2c(c1)-c1nc(N)sc1CC2	.	-12
CC(=O)Nc1ccc(S(=O)(=O)Nc2ccc(S(=O)(=O)Nc3cc(C)on3)cc2)cc1	.	-1.2
COc1ccc(NC(=O)Nc2ccc(Cc3ccc(NC(=O)Nc4ccc(OC)cc4)cc3)cc2)cc1	.	-0.89
CCc1ccc(N2CC(O)=C(c3nc4ccccc4[nH]3)C2=N)cc1	0.81	0.29
COc1ccc(-c2cnc3c(-c4ccc(OC)c(OC)c4)cnn3c2N)cc1OC	0.67	1.6
COc1ccc(S(=O)(=O)N2CCNC(=O)CC2)cc1	-1.1	-0.95
Cc1ccc2nc3c(cc(C#N)c(=O)n3CCN3CCOCC3)c(=O)n2c1	-1.4	-0.06
O=C(Nc1ccccc1)c1ncoc1-c1ccc(Cl)cc1	.	-2.3
CCS(=O)(=O)c1nnnn1-c1ccccc1	.	-13

Record cards (already shown):
Profile of C=CCn1c(Cc2c(C)[nH]c3ccccc23)nnc1SCC(=O)Nc1ccc2c(c1)OCO2 = TAR Tat displ = 0.6; CDC25B CDK2 inh = -0.82
Profile of Cc1ccc(S(=O)(=O)n2nc(OC(=O)c3ccco3)cc2N)cc1 = TAR Tat displ = 1.7; CDC25B CDK2 inh = 1.5

A portion of the results above:
SMILES	TAR Tat displ	CDC25B CDK2 inh
O=C(Nc1ccccc1)c1ncoc1-c1ccc(Cl)cc1	.	-2.3
CCS(=O)(=O)c1nnnn1-c1ccccc1	.	-13

(further entries)
SMILES	TAR Tat displ	CDC25B CDK2 inh
CC1Cc2cc(S(=O)(=O)N3CCC(C(=O)NC4CCCCC4)CC3)ccc2N1C(=O)C1CCC1 (stereo not drawn)	-0.21	.
Cc1ccc(S(=O)(=O)NCCNC(=O)C2CCCNC2=O)cc1 (stereo not drawn)	.	-1.8
COc1ccc(-c2c(C)nn3c(NCCC4=CCCCC4)cc(C)nc23)cc1OC	2.4	-1.6
COCCCNC(=O)c1cc(S(=O)(=O)N2CCOCC2)cn1C	0.89	.
CC(C)(C)C1CCc2onc(C(=O)N3CCN(c4ccccc4)CC3)c2C1 (stereo not drawn)	-1.7	0.25
Cc1nc(C)c(NC(=O)NC2CCCCC2)cc1NC(=O)NC1CCCCC1	2.5	-1.4
CCSc1nc2c(c(=O)[nH]c(=O)n2C)n1CC(O)COc1ccc(Cl)cc1 (stereo not drawn)	1.9	-0.89
O=C(NC1CCc2ccccc21)c1n[nH]c(=O)c2ccccc12 (stereo not drawn)	-1.2	-2
Cc1ccc2nc(C3=C(O)CN(c4ccccc4C)C3=N)[nH]c2c1	1.3	-2
CN(Cc1ccccc1)S(=O)(=O)c1ccc(-c2ccc(=O)[nH]n2)o1	1.1	.
CC1CCN(c2c(-c3ccc4c(c3)OCC(=O)N4)c(=O)c2=O)CC1	1.2	.
O=C(OCCN1CCOCC1)C1c2ccccc2Oc2ccccc21	0.23	0.09
CCN(CC)c1nc2c(-c3cccc(F)c3)nnn2c2ccccc12	1.3	-1.9
NS(=O)(=O)c1cccc(NC(=O)C2COc3ccccc3O2)c1 (stereo not drawn)	.	-1.8
Cc1ccc2c(c1)C(=O)OC(C(=O)Nc1nccs1)C2 (stereo not drawn)	-0.93	-2.3
CCCN(CCC)C(=O)c1cc(S(=O)(=O)N2CCOCC2)cn1C	0.38	.
O=C(Nc1ccc(Cl)cc1)c1cccc(-n2cnnc2)n1	2.3	.
COc1ccc(S(=O)(=O)Nc2cc3oc4ccccc4c3cc2OC)cc1	.	0.06
CCCNC(=O)N1CC(CC)Oc2ccc(Cl)cc21 (stereo not drawn)	0.31	.
CC(C)C(NS(=O)(=O)c1ccc2c(c1)oc(=O)n2C)C(=O)N1CCN(C2CCCCC2)CC1 (stereo not drawn)	.	-1.5
O=C(CSc1nc(-c2cccc(Cl)c2)nc2cc(=O)[nH]n12)NCC1CCCO1 (stereo not drawn)	1.7	.
Cc1nc2ccccn2c(=O)c1NC(=O)CCCc1ccccc1	0.61	.
CN(C)CCN(C(=O)CCS(=O)(=O)c1ccccc1)c1nc2ccc(Cl)cc2s1	2.6	.
CCOC(=O)c1cc2c(ccc3ccccc32)o1	0.73	0.18
O=C(O)C1CCCN1S(=O)(=O)c1cccc2nsnc12 (stereo not drawn)	0.42	-1.4
CCCNC(=O)N1Cc2c(sc3c2CCCC3)-n2cccc2C1C(C)C (stereo not drawn)	1.1	.
Cc1cc(C)cc(NC(=O)N2c3ccccc3NC3=C(C(=O)CC(C)(C)C3)C2c2ccco2)c1 (stereo not drawn)	1.2	.
O=c1[nH]c(SCc2nc3ccccc3[nH]2)nc2ccccc12	.	0.68
O=C(CCc1nc(CN2CCN(C(=O)c3ccc(Br)cc3)CC2)no1)N1CCCC1	-0.45	.
Cc1nnsc1C(=O)Nc1sc2c(c1C(=O)NCc1cccnc1)CCC2	-0.33	0.22
O=C(C1CCN(S(=O)(=O)c2ccc3[nH]c4c(c3c2)CCCCC4)CC1)N1CCc2ccccc21	-0.8	.
O=C(CC1SCCNC1=O)Nc1ccc2c(c1)OCO2 (stereo not drawn)	1.6	-1.9
CC(C)NC(=O)C(C)n1ncn2cccc2c1=O (stereo not drawn)	1.1	0.18
CC(C)(C)C(=O)NCC(c1cccs1)S(=O)(=O)c1ccc(F)cc1 (stereo not drawn)	-0.37	.
CCN1CCN(c2nnc(-n3cccc3CNc3ccccc3Cl)s2)CC1	0.53	.
COc1ccc(-c2n[nH]c3c2C(c2ccccc2Cl)NC3=O)cc1 (stereo not drawn)	0.9	.

From PubChem BioAssay
